AmpC inh no det = inhibitors of E. coli AmpC beta-lactamase without detergent; Potency, µM (titrated, usually from 28.7 µM), without a hit: at the highest dose activity change, negative = inhibition; hit rate 1.8% among 71,000; AID 585; AmpC nitrocefin hydrolysis, absorbance 480 nm, no detergent; potencies from a single point are estimates; active = falling curve, for most hits resting on a single point; inconclusive = weak or doubtful change; inactive = flat or rising curve; further: % of control where 0% means no effect; about half of the hits show no inhibition at the top dose; a quarter of the inactives give rising signals
Target sequence (P00811 whole entry, looked up): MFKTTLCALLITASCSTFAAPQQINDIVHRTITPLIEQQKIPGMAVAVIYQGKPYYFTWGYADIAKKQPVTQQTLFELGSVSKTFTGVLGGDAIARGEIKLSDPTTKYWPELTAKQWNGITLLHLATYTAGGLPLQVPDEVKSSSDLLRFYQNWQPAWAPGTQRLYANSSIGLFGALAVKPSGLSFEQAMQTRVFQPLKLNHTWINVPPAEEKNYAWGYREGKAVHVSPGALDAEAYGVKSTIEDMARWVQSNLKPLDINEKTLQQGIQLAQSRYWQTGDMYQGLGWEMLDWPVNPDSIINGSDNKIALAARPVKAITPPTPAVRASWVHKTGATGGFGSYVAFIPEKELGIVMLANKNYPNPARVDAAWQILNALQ
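AmpC, 20 mM phosphate pH 7.0; 15 min cpd preinc, RT; start with nitrocefin (800 uM stock); A480 kinetic read, 20 s intervals, 4 min. No-enzyme wells = negative control.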
Starred values were filed as active, the others as inactive; & = joins results of further samples; [ ] = dose if it differs, or a comment. Potency means the concentration at half of the fitted maximal effect. An excerpt; count on the stated rates, not on these rows.

SMILES	AmpC inh no det
CC(C)CC1(C)NC(=O)N(CCN2C(=O)c3ccccc3C2=O)C1=O (stereo unspecified)	9%
CCCOC(=O)c1ccc2c(c1)C(=O)N(c1ccccc1)C2=O	-11%
O=C(CSc1nnc(CNC(=O)c2ccccc2F)o1)Nc1ccc2c(c1)OCCO2	0%
CCCc1cc(N2CCCC(C(=O)NCC)C2)n2ncnc2n1 (stereo unspecified)	-2%
Cc1cc(Nc2ccc(F)c(Cl)c2)n2nc(C)nc2n1	21%
COC(=O)c1ccc(Cn2c(CN3CCOCC3)nc3ccccc3c2=O)o1	48%
Cc1cccc(-n2c(SCC(=O)N3CCCC3)nnc2-c2ccccn2)c1C	61%
Cc1ccc2cc(C(c3nnnn3CC3CCCO3)N3CCCC4(CCCCC4)C3)c(=O)[nH]c2c1 (stereo unspecified)	71%
C=CCn1c(=O)n(CC=C)c(=O)n(CC=C)c1=O	5%
N#Cc1ccc(CN2CC[C@@]3(CCCN(C(=O)c4cnccn4)C3)C2)cc1	18%
CCn1cc(C(=O)N2CC(C)CC(C)C2)c(=O)c2cc(S(=O)(=O)N(C)C)ccc21 (stereo unspecified)	68%
Cc1ccc(CNC(=O)[C@H](C)[C@@H]2C[C@@]2(C)[C@@H](NC(=O)OCc2ccccc2)c2ccccc2)o1	30%
COc1ccc2[nH]c3nc(SC(C)C)nnc3c2c1	-6%
CCCc1nc(SCC(=O)NCc2ccc3c(c2)OCO3)c2c(=O)n(C)c(=O)n(C)c2n1	0%
CCc1ccccc1S(=O)(=O)Cc1ccc(C(=O)N2CCN(c3ccccc3OC)CC2)o1	142%
Cc1cccc(NC(=O)c2cc3ccccc3c(=O)o2)n1	-7%
O=C(NC(C(=O)c1ccccc1)N1CCOCC1)c1cccs1 (stereo unspecified)	-2%
CC(=O)c1ccc(OCC(O)CN2CCN(Cc3ccccc3)CC2)cc1 (stereo unspecified)	4µM*[single pt active]
C[C@@H]1CCCN(CP(=O)(c2ccccc2)c2ccccc2)C1	14%[5.75 µM]
CCc1nc(CNC(=O)c2cc(OC)c(OC)c(OC)c2)no1	-7%
COc1ccc(C(=O)O)cc1S(=O)(=O)NCCCN1CCCC1=O	4%
COc1cc2[nH]c(=O)n(CCC(=O)NCc3cccnc3)c(=O)c2cc1OC	-8%
CC(C)OCCCNC(=O)C1CC(=O)N(C2CCCCCCC2)C1 (stereo unspecified)	58%
O=C(NCc1ccco1)c1cc(-c2ccc(F)cc2)on1	0%
c1ccc2sc(SCSc3nc4ccccc4s3)nc2c1	-2%[5.75 µM]
COc1ccc(-c2cc(C(F)(F)F)nc(SCC(N)=O)n2)cc1	39%
CC(OC(=O)c1nn(C)c(=O)c2ccccc12)C(=O)NCc1ccc2c(c1)OCO2 (stereo unspecified)	41%
CCSc1ncc(C#N)c(=O)[nH]1	-6%
CCN1CCN(c2ncc(C(=O)Nc3ccccc3C(=O)OC)c3ccccc23)CC1	132%
COc1cccc(-c2ccc3ncnc(N(C)C)c3c2)c1	6.3µM*
CCn1c(SCc2nnc(-c3ccccc3)o2)nc2c1c(=O)n(C)c(=O)n2C	0%
O=C(Nc1ccccc1)C1CC=CCC1C(=O)OCC1CCCO1 (stereo unspecified)	-2%
COc1ccc(CC(C)N2CCN(Cc3ccccc3)CC2)c(OC)c1 (stereo unspecified)	14%
Nc1[nH]c(=O)nc2c1ncn2[C@H]1O[C@@H](CO)[C@@H](O)[C@@H]1O	-2%[5.75 µM]
Cc1ccc(C2=CSC3=NCCN23)c(C)c1	-19%
CCC(OC(=O)c1nsc(Cl)c1Cl)C(=O)NCc1ccco1 (stereo unspecified)	-7%
O=C(O)c1cccc(S(=O)(=O)NCC2CCCO2)c1 (stereo unspecified)	-12%
O=C1CC(c2ccccc2)CC(O)=C1C=NCC1CCCO1 (stereo unspecified)	18%
N=c1n(Cc2ccccc2)c2ccccc2n1CC(O)c1ccco1 (stereo unspecified)	49%
COc1ccccc1CNc1ccnc(-c2ccccc2CN(C)C)n1	42%

Of the compounds above, 5 contain an NH in an aromatic ring.
SMILES	AmpC inh no det
Cc1ccc2cc(C(c3nnnn3CC3CCCO3)N3CCCC4(CCCCC4)C3)c(=O)[nH]c2c1 (stereo unspecified)	71%
COc1ccc2[nH]c3nc(SC(C)C)nnc3c2c1	-6%
COc1cc2[nH]c(=O)n(CCC(=O)NCc3cccnc3)c(=O)c2cc1OC	-8%
CCSc1ncc(C#N)c(=O)[nH]1	-6%
Nc1[nH]c(=O)nc2c1ncn2[C@H]1O[C@@H](CO)[C@@H](O)[C@@H]1O	-2%[5.75 µM]

Continued:
SMILES	AmpC inh no det
COc1ccc(CNC2CCCCC2)cc1	-12%
O=C(CSc1ccc2nnc(-c3ccccc3)n2n1)N1CCCCC1	7%
Cc1nc(NCc2ccccc2)[nH]c(=O)c1CCC(C)C	-14%
Cc1ccc(C2CC(=O)c3cnc(NC(=O)c4ccco4)nc3C2)cc1 (stereo unspecified)	18%
Cc1ccc2cc(CN(Cc3ccco3)C(=O)c3cccs3)c(=O)[nH]c2c1	10%
O=C(NC1CCCc2ccccc21)C1CCN(C(=O)c2sccc2-n2cccc2)CC1 (stereo unspecified)	68%
CCOC(=O)N1CCN(c2c(N3CC=C(c4ccccc4)CC3)c(=O)c2=O)CC1	103%
O=C(NCc1ccncc1)C1CCCN(S(=O)(=O)Cc2ccccc2)C1 (stereo unspecified)	20%
CC(C)N(Cc1nc(-c2ccccc2)no1)C(=O)c1ccc(Br)o1	27%
CC(C)(C)NC(=O)[C@@H]1C[C@@H]2CCCC[C@@H]2CN1C[C@@H](O)[C@H](Cc1ccccc1)NC(=O)[C@H](CC(N)=O)NC(=O)c1ccc2ccccc2n1	136%
Cc1ccc(C)c(N(CC(N)=O)S(C)(=O)=O)c1	-3%
Cc1nnc(SCC(=O)Nc2c(Cl)cccc2Cl)[nH]c1=O	12%
c1ccc(-c2noc(C34CC5CC(CC(C5)C3)C4)n2)nc1	22%
CC1(C)CC(=O)c2cnc(NCC3CCCO3)nc2C1 (stereo unspecified)	0%
CCCC(=O)c1c(NC(C)C)cc(C)oc1=O	12%
COc1ccc(Cl)cc1NS(=O)(=O)c1cc(Cl)ccc1OC	2%
COc1ccc(S(=O)(=O)N(Cc2ccc(OC)c(OC)c2)Cc2ccco2)cc1	41%
Cc1cc(C)nc(NC(=O)NS(=O)(=O)Nc2ccc(Br)cn2)n1	-6%
O=C(NCCc1ccccc1)C1CCN(S(=O)(=O)c2ccc(-n3cnnn3)cc2)CC1	17%
CCn1c(COc2ccc(Cl)c(C)c2)nnc1SCC(=O)N1CCCC1	126%
O=C(NC1CCCCC1)C1CCCN(c2nnnn2-c2ccccc2)C1 (stereo unspecified)	11%
CS(=O)(=O)N(CC(=O)N1CCCCC1)C1CCCCC1	-1%
CCCn1c(=NC(=O)c2ccncc2)c(C(=O)OCC)cc2c(=O)n3cccc(C)c3nc21	-6%
O=C(Nc1nccs1)C1C2/C=C\CCCCC21 (stereo unspecified)	-5%
O=C(NCc1cccs1)c1cnn2cccnc12	-5%
OCC1(CO)COC2(CCCC2)N1	-1%
O=C(NCCc1cccc(F)c1)[C@@H]1CSC2c3ccccc3C(=O)N21 (stereo partly specified)	-13%
C=CCn1c(SCC(=O)c2ccccc2)nnc1-c1cc2ccccc2o1	32%
N[C@H](Cn1oc(=O)[nH]c1=O)C(=O)O	6%
CCOC(=O)C(CCOc1cccc(CC)c1)C(=O)OCC	35%
Cc1cc(C)cc(NC(=O)NCc2nnc(SCc3ccccc3)n2C)c1	38%
COC(=O)N1CCC2(CC1)CCN(c1ccccn1)CC2	10%
O=C(Cn1nc(C(F)(F)F)c2c1CCCC2)NCCN1CCOCC1	6%
CN(C)CC(CN(C)C)c1ccccn1	-3%[5.75 µM]
N#Cc1ccc(Oc2ccc(C(N)=O)cc2)cc1C#N	-7%
CS(=O)(=O)N1CCC(C(=O)NCc2ccco2)CC1	-1%
Cc1c(C(=O)NN2CCOCC2)nn(-c2ccc(Cl)cc2Cl)c1-c1ccc(I)cc1	24%
O=C(c1cc2ccccc2oc1=O)N(Cc1ccc2c(c1)OCO2)Cc1ccco1	18%
CCc1nc(N)nc2c1C(=O)CC(C)(C)C2	-6%
COCCn1c(=O)c(C)nc2cnc(OC)nc21	12%

Structures above that have a COOH group, in the order listed:
SMILES	AmpC inh no det
COc1ccc(C(=O)O)cc1S(=O)(=O)NCCCN1CCCC1=O	4%
O=C(O)c1cccc(S(=O)(=O)NCC2CCCO2)c1 (stereo unspecified)	-12%
N[C@H](Cn1oc(=O)[nH]c1=O)C(=O)O	6%

(more compounds)
SMILES	AmpC inh no det
CCCCCCOC(=O)C(C#N)c1nc2ccccc2nc1N1CCCCC1 (stereo unspecified)	-14%
O=C(CSc1nnnn1C1CC2CCC1C2)Nc1ccnc2ccccc12 (stereo unspecified)	10%
Cc1ccc(NC(=O)CSc2nnc(-c3ccncc3)n2N)cc1C	3%
COc1ccc(C(=O)N2CCC(C(=O)Nc3ccc(OC)c(OC)c3)CC2)cc1	31%
COc1ccc(Cn2nnnc2C(c2cc3cc(C)cc(C)c3[nH]c2=O)N2CCOCC2)cc1 (stereo unspecified)	90%
CC(C)S	-14%
O=C(NCCOc1ccccc1)c1n[nH]c(=O)c2ccccc12	-13%
c1ccc(-c2nnc(CSc3nnc(-c4ccncc4)n3Cc3ccco3)o2)cc1	16%
O=C(CSc1nnc2ccccn12)c1ccccc1	6%
N#Cc1c(-c2ccccc2)nc(N2CCCCCC2)[nH]c1=O	-5%
CN(Cc1ccccc1)C(=O)c1cccc(NC(=O)c2ccco2)c1	10%
CCc1ncc(CO)n1Cc1cccc2ccccc12	7%[5.75 µM]
CCCn1c(N)c(C(=O)CSc2nnc(Cc3ccccc3)o2)c(=O)n(C)c1=O	13%
CCOc1ccc(N(CC(=O)OC)S(=O)(=O)c2c(C)noc2C)cc1	54%
O=c1[nH]c(CSc2ncc(-c3ccc(F)cc3)n2Cc2ccco2)nc2ccccc12	29%
CC(=O)NCCOc1c(C)cc(S(N)(=O)=O)cc1C	-1%
NCCc1nnc(SCc2ccccc2)o1	12%
Cc1ccc(CNc2ccc3c(c2)ncn3C)cc1	19%
COc1ccccc1N1CCN(C(=O)c2cc(-c3ccc(Br)cc3)on2)CC1	12%
Cc1ccc(NC(=O)c2cccc(N(C)C)c2)cc1NC(=O)c1ccc(O)cc1	-13%

In the list so far, two have a CF3 group.
SMILES	AmpC inh no det
COc1ccc(-c2cc(C(F)(F)F)nc(SCC(N)=O)n2)cc1	39%
O=C(Cn1nc(C(F)(F)F)c2c1CCCC2)NCCN1CCOCC1	6%

(continued)
SMILES	AmpC inh no det
CCOc1ccccc1NC(=O)CCC(=O)Nc1ccc2nc(N3CCN(C)CC3)cc(C)c2c1	100%
Cc1cc(-n2c(C)cc(C(=O)CSc3nc4ccccc4c(=O)n3Cc3ccco3)c2C)no1	-8%
Oc1ccc2c3c1O[C@H]1c4oc5ccccc5c4C[C@]4(O)[C@H](C2)N(CC2CC2)CC[C@@]314	25%&18%
CCOC(=O)C1CCCN(C(=O)c2ccccc2SCCOC)C1 (stereo unspecified)	12%
CCC(C)(C)NC(=O)C(c1cccs1)N(CC1CCCO1)C(=O)Cn1nnc2ccccc21 (stereo unspecified)	20%
COc1ccc(S(=O)(=O)NCc2ccncc2)cc1OC	2%
O=C(c1ccco1)N1CCC[C@@]2(CCN(c3ccncc3)C2)C1	0%
O=C(CSc1ccccc1)N1CCN(c2ccccc2)CC1	18%
CCOC(=O)CSc1cn2c(n1)CCC2	-4%
COC(=O)Cn1cnc2c(nnn2-c2cccc(Cl)c2)c1=O	-2%
O=C(CSc1nnnn1C1CCCCC1)Nc1nc2c(s1)CCCC2	28%
CCOC(=O)c1[nH]cc(-c2ccccc2)c1N1CCOCC1	3%
Cc1nc(NC(=O)CSc2nnc(C)n2CC2CCCO2)sc1C (stereo unspecified)	26%
Cc1ccc(SC(C)c2nc(-c3ccccc3)no2)cc1 (stereo unspecified)	-12%
CCCCCn1c(CNC(=O)CCC)nc2ccccc21	56%
O=C(c1cc(-c2cccs2)on1)N1CCCCC1	1%
O=S(=O)(Nc1ccc(O)cc1)c1cccc2cccnc12	-5%
O=C(c1ccco1)N1CCC2(CC1)CN(Cc1ccncc1)C2	32%
CCOc1ccc(NC(=O)N2CCC(NC(=O)c3ccco3)CC2)cc1	5%
COc1cccc(NC(=O)C(C#N)Cc2ccncc2)c1 (stereo unspecified)	3%

Some of the entries so far, with each value named:
structure: COC(=O)Cn1cnc2c(nnn2-c2cccc(Cl)c2)c1=O
- AmpC inh no det = -2%

structure: O=C(CSc1nnnn1C1CCCCC1)Nc1nc2c(s1)CCCC2
- AmpC inh no det = 28%

structure: CCOC(=O)c1[nH]cc(-c2ccccc2)c1N1CCOCC1
- AmpC inh no det = 3%

structure: Cc1nc(NC(=O)CSc2nnc(C)n2CC2CCCO2)sc1C (stereo unspecified)
- AmpC inh no det = 26%

More results follow:
SMILES	AmpC inh no det
O=C(c1cccnc1)N1CCN(CCCc2ccccc2)CC1	57%
Nc1nnn(Cc2ccccc2)n1	4%
O=C(Oc1cccc(-n2cnnn2)c1)C1CCCCC1	23%
CC1CCN(C(=O)CSc2nncn2-c2ccccn2)CC1	-1%
O=C(CSc1nc2ccccc2o1)Nc1nc2ccccc2s1	-12%
COc1cc(Cl)c(CC(=O)c2c[nH]c3ccccc23)cc1OC	-3%[5.75 µM]
CCOc1cc(C#N)c(NC(=O)c2ccco2)cc1OCC	-4%
Cc1ccc(S(=O)(=O)N(C)Cc2cc3ccccc3[nH]c2=O)cc1	1%
Cc1ccc(C2C(C(=O)c3sc(-c4ccccc4)nc3C)=C(O)C(=O)N2CCN(C)C)o1 (stereo unspecified)	1%
CC1(C)Cc2c(sc3c2c(=N)n(Cc2ccco2)c(=O)n3Cc2ccc(F)cc2)CO1	81%
COC(=O)c1cc(NC(=O)CN2CCC(C(N)=O)(N3CCCCC3)CC2)cc(C(=O)OC)c1	34%
COc1cc(NCC[C@@H]2CCCCN2)c2ncccc2c1	0%[5.75 µM]

High-throughput results as filed in PubChem.
